# Screening results: PubChem BioAssay, several laboratories
# T cruzi inh = T. cruzi replication inhibition. T. cruzi beta-gal in NIH3T3, luminescence, 90 h. inhibition, % (no concentration beside the values). 1.4% of 300,000 active. AID 1885;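 active = mean inhibition across valid replicates above about 55%, limit read from the data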;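 also: signal also drops with host cell toxicity which is not excluded here; 0% = plate median of DMSO wells and 100% = zero luminescence signal; higher percent means less beta-gal luminescence so fewer parasites; stock transfer was 50 nL into about 50 µL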
# Beta cell apopt = blocks beta cell apoptosis. INS-1E cytokine-induced death, ATP luminescence, 48 h; percent of positive-control rescue, neutral wells zero. protection from apoptosis, % (no concentration beside the values). 0.8% of 300,000 active;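 active = all replicates at 75% or more, or half of them and the mean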;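 also: 0% = cytokine-treated negative control wells and 100% = positive control rescue; higher means more ATP so stronger rescue from cytokine killing; wells of about 40 µL received 100 nL stock; the first replicate is given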
# AF4-AF9 inh = MLL-AF4/AF9 protein interaction inhibition | inhibition, % at 10 µM | P42568 | 0.47% of 350,000 active | AlphaScreen, biotin-AF4 peptide binding to FLAG-AF9 | AID 651704;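 active = every replicate reaching a set inhibition limit, whatever the replicate mean, cut at about 25% in these data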;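 also: 0% = plate neutral control median and 100% = total signal loss; the record names both 10 and 1 µM as test concentration; the first replicate is given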
# Target sequence (P42568 whole entry, looked up): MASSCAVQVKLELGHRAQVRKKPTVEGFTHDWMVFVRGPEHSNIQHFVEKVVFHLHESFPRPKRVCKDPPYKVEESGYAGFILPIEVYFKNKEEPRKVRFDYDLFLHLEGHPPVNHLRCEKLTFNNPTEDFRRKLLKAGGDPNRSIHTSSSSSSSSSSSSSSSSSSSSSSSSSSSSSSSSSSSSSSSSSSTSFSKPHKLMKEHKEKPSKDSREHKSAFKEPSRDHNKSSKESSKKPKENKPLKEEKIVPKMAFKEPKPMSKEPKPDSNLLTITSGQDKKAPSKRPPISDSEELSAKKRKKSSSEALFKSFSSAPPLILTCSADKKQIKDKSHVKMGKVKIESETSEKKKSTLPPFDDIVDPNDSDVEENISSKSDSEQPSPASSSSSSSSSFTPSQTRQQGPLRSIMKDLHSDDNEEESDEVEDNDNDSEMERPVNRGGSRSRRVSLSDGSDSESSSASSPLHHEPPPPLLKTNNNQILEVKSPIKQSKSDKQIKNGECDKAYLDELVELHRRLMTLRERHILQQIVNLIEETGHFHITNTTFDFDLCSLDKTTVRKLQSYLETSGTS
# A1 inh = inhibitors of the anti-apoptotic protein A1, read as caspase activation; AID 2462; caspase activation, % (test concentration not listed); MEF A1-2A-BIM cells, Caspase-Glo 3/7 luminescence, 3 h; percent of clofoctol response, vehicle zero; 0.066% of 330,000 active;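 active = over half of replicate activation scores above 10%, or exactly half above 10 with the replicate mean above 10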;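 also: wells of about 30 µL received 50 nL stock; many hits fall short of the cut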
# Ecoli rRNA inh = inhibitors of bacterial rRNA selective over humanized ribosomes | E. coli WT GFP vs humanized-ribosome RFP mutants, fluorescence, 24 h; stronger effect = lower value; DMSO median 0, no signal -100 | 1.6% of 350,000 active | GFP signal change (wild-type ribosome), % (no concentration beside the values) | AID 720706;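 active = significant combined selectivity score with lowered wild-type GFP, culture density cut under 30%, mutant RFP and density less affected; inactive = any of these conditions unmet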; also: one replicate is shown; some compounds called inactive have numbers as strong as hits
# FGF22 binding = FGF22 (human) thermal shift binding; Q9HCT0; recombinant FGF22 thermal shift, SYPRO orange fluorescence; percent of sucrose octasulfate shift, DMSO zero; calls only at 9.99 µM; 1.5% of 340,000 active; AID 651658;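 active = melting point raised past a set limit in the mean and every replicate; three in four hits are not shown here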
# Target sequence (Q9HCT0 whole entry, looked up): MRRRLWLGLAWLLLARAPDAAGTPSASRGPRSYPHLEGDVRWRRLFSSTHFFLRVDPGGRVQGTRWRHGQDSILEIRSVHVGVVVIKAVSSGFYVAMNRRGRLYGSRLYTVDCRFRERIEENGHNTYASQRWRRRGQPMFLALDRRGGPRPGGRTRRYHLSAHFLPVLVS
# UCH37 inh = inhibitors of human deubiquitinating enzyme UCH37. inhibition, % (concentration not given with the values). Q9Y5K5. 0.33% of 330,000 active. purified proteasome/UCH37, Ub-AMC cleavage fluorescence. AID 588478;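 active = mean of two replicates above 20%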;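 also: 0% = compound-free wells with enzyme and 100% = wells lacking proteasome; stock transfer was 100 nL into about 20 µL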
# Target sequence (Q9Y5K5 whole entry, looked up): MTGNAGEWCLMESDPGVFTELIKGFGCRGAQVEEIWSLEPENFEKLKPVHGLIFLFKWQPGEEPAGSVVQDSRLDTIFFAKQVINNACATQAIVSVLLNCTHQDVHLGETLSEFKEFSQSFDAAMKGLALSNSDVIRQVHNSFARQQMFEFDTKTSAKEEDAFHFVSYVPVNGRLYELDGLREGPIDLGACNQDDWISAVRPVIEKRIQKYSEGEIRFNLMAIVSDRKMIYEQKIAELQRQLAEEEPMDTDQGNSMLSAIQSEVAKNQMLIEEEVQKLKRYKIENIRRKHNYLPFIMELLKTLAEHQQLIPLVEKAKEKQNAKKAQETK
#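 Signal – fluorescence, ex 355 nm, em 460 nm · System – Proteasome-bound UCH37 · Input – 0.15 nM proteasome as dispensed · Timing – 30 min preincubation with enzyme, 25 min cleavage at room temperature · Read-out basis – percent inhibition of cleavage signal versus uninhibited and no-proteasome wells · Medium – Tris-HCl pH 7.4 with ATP-MgCl2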
# Ecoli growth = E. coli growth inhibition. 0.21% of 330,000 active. OD600 absorbance (concentration not given with the values). Escherichia coli growth, OD600, 23 h; stronger effect = lower value;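 active = OD600 absorbance below the run mean of sample wells minus 3.6 SD, in any replicate, cut at about 0.56 in these data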;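 also: stock transfer was 300 nL into about 60 µL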
# Ecoli rRNA inh OD600 = recorded beside Ecoli rRNA inh, whose call it bears; OD600 change, %; measured here: OD600 growth;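 optical density of the mix in the first replicate; 0 = DMSO median and -100 = no signal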
# Ecoli rRNA inh RFP = recorded beside Ecoli rRNA inh, whose call it bears; RFP signal change, %; measured here: RFP humanized mutant strains;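 first replicate; 0 = DMSO median and -100 = no signal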
# Numbers without * were called inactive; i = inactive; nt = no result given.
SMILES,T cruzi inh,Beta cell apopt,AF4-AF9 inh,A1 inh,Ecoli rRNA inh,Ecoli rRNA inh OD600,Ecoli rRNA inh RFP,FGF22 binding,UCH37 inh,Ecoli growth
COCCCNS(=O)(=O)c1ccc2c(c1)CCN2C(C)=O,-7,-6,nt,-0.2,nt,nt,nt,nt,-0.4,0.73
O=C(CSc1nc2c(c(=O)[nH]1)CCCC2)Nc1ccc(Cl)cc1F,-4,1,-5.8,-0.4,5,12,-3.7,i,1.6,0.73
O=C(Nc1ccccc1)N1CCC(=S)Nc2ccccc21,-3,-4,nt,0.3,nt,nt,nt,nt,5.7,0.65
COc1ccc(CCNC(=O)C2CCCN2C(=O)NC2CCCCC2)cc1OC (centres undefined),-4,nt,nt,-0.3,nt,nt,nt,nt,1.5,0.68
O=C(NNC(=S)Nc1ccccc1)c1ccccc1[N+](=O)[O-],-17,4,-0.2,-0.6,9,10,1.9,i,4.0,0.65
Cc1ccc(NC(=O)COC(=O)CN2C(=O)NC3(CCCC3)C2=O)cc1F,nt,-1,0.9,0.4,nt,nt,nt,i,-0.7,0.68
Cc1ccccc1OCC(=O)Nc1cccc2nsnc12,-11,-14,nt,-0.2,nt,nt,nt,nt,-17,0.77
Cc1ccc(C)c(NS(=O)(=O)c2ccc3[nH]c(=O)oc3c2)c1,2,-2,-0.2,0.7,0,-7,-1.9,i,0.6,0.66
Cc1cccc(C(=O)OC(C)C(=O)Nc2ccc(S(=O)(=O)Nc3ncccn3)cc2)c1C (centres undefined),nt,-3,-20,-0.3,-7,-5,2.8,i,1.5,0.69
O=C(O)Cc1ccc(C(=O)c2ccc(Cl)cc2Cl)s1,-11,-3,-3.5,0.3,-13,-7,-3.7,i,2.5,0.67

# Ordered by the number under Ecoli rRNA inh OD600 (lowest first): 3 of the compounds above.
SMILES	Ecoli rRNA inh OD600
Cc1ccc(C)c(NS(=O)(=O)c2ccc3[nH]c(=O)oc3c2)c1	-7
Cc1cccc(C(=O)OC(C)C(=O)Nc2ccc(S(=O)(=O)Nc3ncccn3)cc2)c1C (centres undefined)	-5
O=C(NNC(=S)Nc1ccccc1)c1ccccc1[N+](=O)[O-]	10

# Next part.
SMILES,T cruzi inh,Beta cell apopt,AF4-AF9 inh,A1 inh,Ecoli rRNA inh,Ecoli rRNA inh OD600,Ecoli rRNA inh RFP,FGF22 binding,UCH37 inh,Ecoli growth
Cc1nc(-c2ccc(Cl)cc2)sc1C1(C)CC(c2cccc(F)c2)=NO1 (centres undefined),-20,-18,-8.6,-1.3,1,2,2.7,i,0.4,0.69
COCCn1c(SCc2ccc(OC)c(F)c2)nnc1-c1ccncc1,-6,0,0.5,0.0,6,17,1.5,i,-0.9,0.65
CC(=O)c1cc(-c2ccccc2)n(CC(=O)Nc2cc(C)cc(C)c2)c1C,8,44,nt,1.0,nt,nt,nt,nt,1.8,0.67
COC(=O)CSc1nnc(CNC(=O)c2cccs2)n1-c1cc(OC)ccc1OC,nt,nt,7.8,0.0,6,4,-4.6,i,0.4,0.72
CS(=O)(=O)c1ccc([C@@H](O)[C@@H](CF)NC(=O)C(Cl)Cl)cc1,nt,22,-18,1.2,nt,nt,nt,i,2.7,nt
O=C(O)CCc1nnc(SCC(=O)Nc2ccc(Br)cc2)[nH]c1=O,-14,-4,-1.5,-0.4,19,17,-0.1,i,5.1,0.69
COc1ccc(C2=Nn3c(nnc3-c3ccncc3)SC2)cc1,19,-2,nt,-0.2,nt,nt,nt,nt,4.6,0.7
CCOC(=O)c1c(C)n(C)c2ccc(OC)c(NC(=O)CN3CCN(Cc4ccccc4)CC3)c12,36,-4,nt,0.0,nt,nt,nt,nt,4.5,0.7
CCN(CC)S(=O)(=O)c1ccc(S(=O)(=O)Nc2c(C)nn(C)c2C)cc1,-31,56,-44,-0.3,6,9,-2.7,i,0.3,0.65
Cc1ccc(-c2nnc(N3CCC(C)CC3)c3ccccc23)cc1,42,7,2.0,0.2,-13,-22,2.9,i,1.6,0.64
Cn1cc([N+](=O)[O-])c(C(=O)N/N=C/c2ccncc2)n1,-2,nt,1.5,0.5,27,15,2.2,i,nt,nt
COc1ccc(C(=O)COC(=O)c2ccc(OC)c(OC)c2)cc1OC,-19,-3,nt,-0.4,0,8,-0.4,nt,2.1,0.71
Cc1ccc(S(=O)(=O)Nc2cccc(C(=O)NCCN3CCOCC3)c2)cc1F,nt,-4,12,0.6,6,2,-2.9,i,1.0,0.64
O=C(NC1CCCC1)c1cccc(S(=O)(=O)N2CCOCC2)c1,nt,1,5.9,-0.7,3,16,2.3,i,1.8,0.69
CCOc1ccc2nc(N(CCN(CC)CC)C(=O)c3cccc([N+](=O)[O-])c3)sc2c1,50,-4,16,0.9,7,3,-2.7,i,1.0,0.64
O=C(O)CCN=C1CCCc2ccccc2N1,-9,-9,nt,-0.7,nt,nt,nt,nt,0.6,0.69
CCc1nc(SCC(=O)N2CCc3ccccc32)c2oc3ccccc3c2n1,nt,nt,15,nt,9,4,-2.3,i,2.6,0.66
C#CCOCCOCCOCCNc1nc(N2CCOCC2)nc(N2CCN(C(=O)[C@H](CCCCN)n3cc([C@@H](N)CC(C)C)nn3)CC2)n1,-18,1,9.5,0.4,19,7,-0.9,i,2.7,nt
CCC(Br)C(=O)Nc1ccc(OC)cc1 (centres undefined),-6,-9,-1.8,2.4,nt,nt,nt,nt,-0.4,0.67
COc1ccc(C(CNC(=O)c2oc3ccc(F)cc3c2C)N2CCCCC2)cc1 (centres undefined),22,nt,6.0,nt,5,-25,3.7,i,nt,nt
CC12CCC(C(=O)NCc3ccccc3)(OC1=O)C2(C)C (centres undefined),-22,-2,nt,-1.6,nt,nt,nt,nt,-1.2,0.69
Cc1ccc(-c2cnn3c(N4CCOCC4)cc(C)nc23)cc1,7,-8,1.5,-5.9,-6,-8,-2.4,i,-368,0.61
Cc1ccc(CN(C)C(=O)c2cc(COc3cccc(C(F)(F)F)c3)on2)o1,4,-7,-4.6,0.7,-17,-16,-2.3,i,2.4,0.69
Cc1nn(Cc2ccc(C(=O)Nc3ccccc3F)cc2)c(C)c1Cl,-8,-2,-0.5,0.2,-24*,-16*,-1.9*,i,0.7,0.66
Nc1nc(-c2ccccc2)nc2sc3c(c12)CCCC3,25,3,nt,-0.7,nt,nt,nt,nt,-41,0.69
Cc1oc(-c2cc(F)ccc2F)nc1CN(C)Cc1ccc2nccnc2c1,14,-7,1.7,-0.7,-5,-13,-0.9,i,2.9,0.68
CCC(c1nnc(SCC(=O)Nc2cccc(S(N)(=O)=O)c2)n1Cc1ccccc1)N(C)C (centres undefined),-22,5,-15,1.0,4,1,-0.4,i,1.4,0.7
Cc1ccc(S(=O)(=O)NCC(=O)NC2CC2)cc1,-4,-6,-1.1,1.0,8,14,0.1,i,1.5,0.72
O=C(c1cccc(F)c1)N1CCN(Cc2c[nH]c3ccccc23)CC1,7,-2,nt,0.4,nt,nt,nt,nt,0.5,0.69
CCOC(=O)N(Cc1ccccc1)C1CC1,nt,nt,-2.2,nt,nt,nt,nt,i,0.3,0.65
Cc1nnc(SCc2ccccc2Cl)n1CC1CCCO1 (centres undefined),6,-5,nt,0.0,nt,nt,nt,nt,1.8,0.72
O=C(/C=C/Nc1ccc(F)cc1)c1cccs1,-11,1,nt,0.6,nt,nt,nt,nt,-0.8,nt
CC(C)(Oc1ccc(CCNC(=O)c2ccc(-c3ccccc3)o2)cc1)C(=O)O,-3,-2,1.3,1.4,0,-4,2.0,i,0.6,0.71
Cc1ccc2c(c1C)NC(=O)C2(O)CC(=O)c1ccc2c(c1)OCO2 (centres undefined),-14,-8,nt,0.8,nt,nt,nt,nt,0.9,0.71
CN(C)S(=O)(=O)n1cc(/C=C(\NC(=O)c2ccccc2F)C(=O)NCCCN2CCOCC2)c2ccccc21,29,0,-1.4,-0.6,-2,-2,2.7,i,3.0,0.68
CC(=O)Nc1nc(-c2ccc(Cl)cc2)nc(C)c1C(C)=O,-8,-4,nt,1.1,nt,nt,nt,nt,16,0.62
CN1CCN(C(=O)/C(=C\c2cccs2)NC(=O)c2ccco2)CC1,-13,-8,-1.7,0.1,nt,nt,nt,i,7.0,0.67
Cc1ccnc(NS(=O)(=O)c2ccc(NS(=O)(=O)c3ccccc3)cc2)n1,11,-1,nt,0.4,11,7,-2.6,nt,5.2,0.68
O=S(=O)(c1cccc2nsnc12)N1CCCC1,-18,-1,nt,0.4,nt,nt,nt,nt,3.0,0.75
CCOc1ccc(N(CC(=O)N2CCOCC2)S(=O)(=O)c2ccc(F)cc2)cc1,-9,2,0.4,0.5,1,2,1.5,i,2.8,0.73
COc1ccc2c(=O)c3c(=O)n(Cc4ccco4)c(-c4ccco4)nc3oc2c1,4,1,nt,0.2,nt,nt,nt,nt,-3.5,0.72
CC(C)Cc1nnc(NC(=O)CCNC(=O)c2ccco2)s1,-4,-1,0.0,-0.6,-3,-7,1.1,i,5.9,0.66
Cn1c(N)c(C(=O)COC(=O)CNC(=O)c2ccccc2F)c(=O)n(C)c1=O,nt,-8,-0.9,-0.3,25,15,0.1,i,-1.0,0.64
CCOC(=O)N1CCN(C(=O)c2ccc(C)c(S(=O)(=O)Nc3cccc(C)c3C)c2)CC1,5,11,-38,-0.1,0,15,8.6,i,2.0,0.66
NC(=O)c1ccc(-c2ccc(Br)cc2)o1,2,1,nt,-0.5,nt,nt,nt,nt,-2.6,0.63
O=C(c1ccccc1)N1CCN(C(=O)c2ccccc2)c2ccccc21,nt,nt,-1.9,nt,nt,nt,nt,i,5.6,0.69
Cc1ccc(CNC(=O)CCC2CCCN(Cc3c(C)nn(C(C)C)c3C)C2)o1 (centres undefined),67*,-6,2.6,-0.1,11,4,0.2,i,3.6,0.7
COC(=O)c1sc(SC)c(S(=O)(=O)C(C)C)c1N/N=C(\C#N)S(=O)(=O)c1ccccn1,nt,-5,1.1,-0.6,12,9,1.7,i,nt,nt
N#CC1=C2N=C(N)c3c(sc4c3CCCCC4)N2C2=C(C(=O)CCC2)C1c1ccccc1 (centres undefined),29,2,nt,-0.8,nt,nt,nt,nt,3.8,0.7
C=CCOc1c2ccc(C(=O)NCCc3ccc(C)cc3)cc2nn1C,2,-7,-0.6,0.8,-13,-12,-4.9,i,1.1,0.79
O=C(Cc1ccc(Br)cc1)NC1CCCc2ccccc21 (centres undefined),2,0,0.5,-0.4,10,15,3.5,i,2.5,0.69
COc1ccccc1N(C)S(=O)(=O)c1ccc(C(=O)NC2CCCCCC2)cc1,33,13,-32,-0.2,-34,-36,-9.3,i,3.1,0.67
Cc1ccc(N2C(=O)CC2(C#N)c2ccc(OCc3ccccc3)cc2)cc1 (centres undefined),41,5,nt,-0.3,nt,nt,nt,nt,1.7,0.74

# Some of the compounds tested. The share of hits here may be higher or lower than overall.
